# Screens: PubChem BioAssay, Johns Hopkins Ion Channel Center
# KCNQ2 block: KCNQ2 potassium channel inhibitors, primary screen, cell-based, CHO-K1, FluxOR thallium flux, B-score (AID 2156). 20 min; active compounds read low; only compounds with negative scores are shown here; some inactives read as strong as hits. B-score at 10 µM. Potassium voltage-gated channel subfamily KQT member 2 (Rattus norvegicus), O88943. 310,000 tested, 1.1% active;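 active = fluorescence ratio B-score at most minus 3 library SDs, with starting brightness B-score within 2 library SDs, cut at about -5.5 in these data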
# Target sequence (O88943 whole entry, looked up): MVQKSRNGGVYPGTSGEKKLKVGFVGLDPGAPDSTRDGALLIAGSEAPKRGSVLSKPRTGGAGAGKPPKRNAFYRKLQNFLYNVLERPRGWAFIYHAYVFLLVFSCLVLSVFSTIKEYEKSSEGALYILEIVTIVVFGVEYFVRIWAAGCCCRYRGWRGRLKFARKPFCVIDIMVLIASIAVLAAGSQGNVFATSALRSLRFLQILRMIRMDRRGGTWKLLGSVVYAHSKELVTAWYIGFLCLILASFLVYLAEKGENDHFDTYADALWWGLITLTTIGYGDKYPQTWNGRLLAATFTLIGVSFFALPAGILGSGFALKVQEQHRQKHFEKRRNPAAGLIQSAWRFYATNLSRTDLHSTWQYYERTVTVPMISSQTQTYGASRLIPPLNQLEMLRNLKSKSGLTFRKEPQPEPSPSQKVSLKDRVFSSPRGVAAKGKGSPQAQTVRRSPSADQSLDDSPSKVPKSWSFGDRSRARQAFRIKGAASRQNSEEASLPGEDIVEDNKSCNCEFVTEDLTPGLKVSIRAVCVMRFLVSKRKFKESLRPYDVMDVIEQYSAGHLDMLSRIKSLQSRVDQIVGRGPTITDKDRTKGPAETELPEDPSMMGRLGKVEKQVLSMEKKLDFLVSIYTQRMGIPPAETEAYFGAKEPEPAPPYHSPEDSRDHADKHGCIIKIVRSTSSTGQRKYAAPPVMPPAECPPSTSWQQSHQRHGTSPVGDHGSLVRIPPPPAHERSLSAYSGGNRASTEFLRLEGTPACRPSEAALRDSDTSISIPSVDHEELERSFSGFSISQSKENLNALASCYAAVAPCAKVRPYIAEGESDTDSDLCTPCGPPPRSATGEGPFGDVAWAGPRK
# KCNQ2 block baseline: further read-out of KCNQ2 block, marked with its call; B-score; measured here: initial fluorescence intensity artifact check;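 brightness before thallium and not channel activity; 0 = typical well and far values either way flag optical interference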
# Starred values were filed as active, the others as inactive; i = inactive. These rows are one share of the data (hit frequency here may not be typical).
# Values in the order – KCNQ2 block	KCNQ2 block baseline
> O=C(NC1CCCCCCC1)c1cc(COc2ccc3ncccc3c2)on1
→ i	-0.02
> Cc1ccc2nsnc2c1S(=O)(=O)NCc1cccnc1
→ i	1.14
> CCN=C1SC(CC(=O)Nc2sc(C)c(C)c2C(=O)OC)C(=O)N1CC (stereo unspecified)
→ i	1.47
> O=C(COC(=O)C1CCCCC1)Nc1ccccc1OC(F)F
→ i	-1.5
> CCCCCC(=O)Nc1nc(C)c(-c2csc(Nc3cc(Cl)ccc3OC)n2)s1
→ i	0.01
> Cc1ccc(-n2c(-c3ccccc3)cc(/C=N/NC(=O)CC#N)c2-c2ccccc2)cc1
→ i	0.3
> O=C(CNC(=S)N(Cc1ccccc1F)C1CCCCC1)NCC1CCCO1 (stereo unspecified)
→ i	0.22
> CCOC(=O)c1cnc(COc2ccc(OC)cc2)[nH]c1=O
→ i	0.16
> COc1cccc(CNC(=O)Cn2nc([N+](=O)[O-])c(Br)c2C)c1
→ i	0.87
> C=CCn1c(CNS(=O)(=O)c2ccc(Br)cc2)n[nH]c1=S
→ i	-1.14
> Cc1nc(-c2ccc(NC(=O)C3CCCCC3)cc2)cs1
→ i	0.02
> Cc1ccc(C(C(=O)Nc2ccc3c(c2)OCO3)N(C)C(=O)Cc2c[nH]c3ccccc23)cc1 (stereo unspecified)
→ i	-0.72
> O=C(Nc1ccccc1N1CCN(C(=O)c2ccccc2)CC1)c1ccccc1Cl
→ i	-1.35
> CC(Oc1ccc(F)cc1)C(=O)Nc1cc(S(=O)(=O)N2CCOCC2)ccc1N1CCN(C)CC1 (stereo unspecified)
→ i	-0.41
> CCOC(=O)C1CCN(C/C=C/c2ccccc2)CC1
→ i	-0.04
> CC(C)NCC(O)COc1ccc(Br)cc1 (stereo unspecified)
→ i	-0.25
> COc1ccccc1N1C(=O)c2ccc(C(=O)Nc3nccs3)cc2C1=O
→ i	1.27
> CCn1cc(C(=O)NCCc2ccccc2C)c(=O)c2ccc(C)nc21
→ i	-1.02
> O=C1CC(N(CCc2ccccc2)C(=S)Nc2cc(Cl)ccc2Cl)C(=O)N1c1c(Cl)cccc1Cl (stereo unspecified)
→ i	0.73
> O=C(Nc1ccc(CN2CCCCC2)cc1)c1sc2ccccc2c1Cl
→ i	-1.94
> O=C(NCCCn1ccnc1)c1ccc(NS(=O)(=O)c2ccc(Cl)c(Cl)c2)cc1
→ i	4.64
> Cc1cc(C)n2nc(-c3ccccc3)cc2n1
→ i	-1.06
> Nc1c(C(=O)N/N=C/c2ccc(F)cc2)oc2nc(-c3ccccc3)cc(-c3ccco3)c12
→ i	-0.14
> Fc1ccc(Nc2nc(N3CCOCC3)nc(N3CCOCC3)n2)cc1
→ i	0.31
> COC(=O)C1=C(C)NC(=O)/C1=C\N(C)C
→ i	0.01
> COC(=O)c1scc(C)c1NC(=O)CC1NCCNC1=O (stereo unspecified)
→ i	-3.36
> Cc1cc(=O)c2n(Cc3ccccc3Cl)nc[n+]2[nH]1
→ i	-1.19
> Cc1cccc(NC(=O)c2ccc(COc3ccc4ccccc4c3)o2)n1
→ i	1.18
> CC(=O)N1c2ccccc2C(C)CC12CCCCC2 (stereo unspecified)
→ i	-0.84
> COc1ccc(C(=O)NC(=S)Nc2cc(C)ccn2)cc1[N+](=O)[O-]
→ i	-0.74

# Not a retest: five of the compounds above.
# Values in the order – KCNQ2 block	KCNQ2 block baseline
> COC(=O)c1scc(C)c1NC(=O)CC1NCCNC1=O (stereo unspecified)
→ i	-3.36
> Cc1cc(=O)c2n(Cc3ccccc3Cl)nc[n+]2[nH]1
→ i	-1.19
> Cc1cccc(NC(=O)c2ccc(COc3ccc4ccccc4c3)o2)n1
→ i	1.18
> CC(=O)N1c2ccccc2C(C)CC12CCCCC2 (stereo unspecified)
→ i	-0.84
> COc1ccc(C(=O)NC(=S)Nc2cc(C)ccn2)cc1[N+](=O)[O-]
→ i	-0.74

# (list continues)
# Values in the order – KCNQ2 block	KCNQ2 block baseline
> CN(CC(=O)Nc1ccccc1Cl)C(=O)COC(=O)c1cc(S(=O)(=O)N(C)C)ccc1N1CCCC1
→ i	1.66
> Cc1ccc2c(c1)cc(CN(C(=O)N1CCOCC1)C1CCCC1)c1nnnn12
→ i	-0.01
> COc1ccc(-c2cc(C(=O)N/N=C/c3cccnc3)c3cc(C)cc(C)c3n2)cc1
→ i	-1.14
> CCOc1cc(S(=O)(=O)N2CCOCC2)ccc1F
→ i	-0.23
> CCOc1ccccc1NC(=O)CCCc1ccc(OC)c(C)c1
→ i	-1.84
> COc1ccc(S(=O)(=O)NCC(=O)NCCc2ccc(OC)c(OC)c2)cc1
→ i	-0.07
> CC12CCC(=O)N1C(C(=O)OCC(=O)Nc1cccc(Br)c1)CS2 (stereo unspecified)
→ i	0.28
> CCN(CC(=O)Nc1cc(Cl)ccc1C)C(=O)CN1C(=O)NC(CC)(c2ccccc2)C1=O (stereo unspecified)
→ i	-1.48
> CN(C)C(=O)NC1c2ccccc2-c2ccccc21
→ i	0.22
> O=C(c1cccs1)N(Cc1cc2ccccc2[nH]c1=O)c1ccccc1
→ i	-1.05
> CCOc1ccc(NC(=S)NNC(=O)c2ccc(Br)cc2)cc1
→ i	0.78
> CCOCCCNC(=O)C1CCN(Cc2cccc(OCc3ccccc3)c2)CC1
→ i	1.02
> CC(Cc1ccco1)NC(=O)c1cccc(S(=O)(=O)N(C)C)c1 (stereo unspecified)
→ i	1.58
> COc1cc(OC)cc(C(=O)NC2CCCCCCC2)c1
→ i	0.7
> COc1ccc(CCNC(=O)CSc2nc3c(c(=O)n(C)c(=O)n3C)n2C(C)C)cc1OC
→ i	-0.22
> O=C(/C=C/c1ccc2c(c1)OCO2)c1ccccn1
→ i	-0.52
> CN(C)CC(=O)c1ccc(-c2ccccc2)cc1
→ i	-0.43
> COc1ccccc1S(=O)Cc1ccc(C(=O)NCc2ccccc2Cl)o1 (stereo unspecified)
→ i	0.58
> COc1ccc(N(CC(=O)Nc2c(C)cccc2C)S(=O)(=O)c2ccccc2[N+](=O)[O-])c(OC)c1
→ i	0.95
> CCn1cc(C(=O)N[C@@H](CCSC)C(=O)NCCCn2ccnc2)c(=O)c2cc3c(cc21)OCO3
→ i	0.73
> CS(=O)(=O)Nc1ccc(C2=NN(S(C)(=O)=O)C(c3cccs3)C2)cc1 (stereo unspecified)
→ i	0.21
> Cc1ccccc1SCc1noc(C(=O)NCC2CCCO2)c1C(=O)O (stereo unspecified)
→ i	-0.98
> CCC(C(=O)NCc1cccnc1)n1nc(C)n2c(cc3occc32)c1=O (stereo unspecified)
→ i	-1.85
> O=S(=O)(Nc1nc2ccccc2nc1N1CCN(c2ccccc2)CC1)c1ccc(F)cc1
→ i	-0.02
> COC(=O)c1ccc(C(=O)OC)c(N)c1
→ -5.66*	-0.5*
> COc1ccc(C2CC(c3ccc(C)cc3)=NN2C(=O)CCC(=O)O)cc1OC (stereo unspecified)
→ i	-0.71
> CCCN1CCN(S(=O)(=O)c2ccc3c(c2)CC(C)N3C(=O)C2CC2)CC1 (stereo unspecified)
→ i	-1.44
> Cc1cccc(C)c1OCC(O)Cn1nnc2ccccc21 (stereo unspecified)
→ i	0.96
> O=C1OCCN1/N=C/c1ccc([N+](=O)[O-])o1
→ i	0.61
> Cc1cc([N+](=O)[O-])nn1Cc1ccc(C(=O)N/N=C/c2ccc(O)cc2O)cc1
→ i	0.61

# Exported tab-delimited: 2 of the compounds above
Structure	KCNQ2 block	KCNQ2 block baseline
Cc1ccccc1SCc1noc(C(=O)NCC2CCCO2)c1C(=O)O (stereo unspecified)	i	-0.98
CCC(C(=O)NCc1cccnc1)n1nc(C)n2c(cc3occc32)c1=O (stereo unspecified)	i	-1.85

# Following part:
# Values in the order – KCNQ2 block	KCNQ2 block baseline
> O=C(NCc1ccco1)C1CC(=O)N(c2ccc(O)cc2)C1 (stereo unspecified)
→ i	0.05
> O=C(NCc1ccccc1)N1CCN(c2ccccc2)CC1
→ i	0.3
> CN(C(=O)COC(=O)c1ccc([N+](=O)[O-])cc1N)c1ccccc1
→ i	0.62
> COc1ccc(CC(=O)N/N=C(/C)CC(=O)N(C)c2ccccc2)cc1
→ i	-0.35
> COC(=O)c1sc(N2C(=O)c3oc4ccccc4c(=O)c3C2c2cccc(O)c2)nc1C (stereo unspecified)
→ i	0.02
> COc1ccc(CN(C)CC(=O)NC2CCCc3ccccc32)cc1OC (stereo unspecified)
→ i	-2.53
> CC(C)CSc1nsc(N)n1
→ i	-0.02
> Cc1cc(-n2cc(Br)c(=O)[nH]c2=O)nc(-c2ccccc2)n1
→ i	-0.59
> O=C1NC(=O)C(c2ccc(Cl)cc2)N1 (stereo unspecified)
→ i	-0.66
> CC(=O)NC(Cc1cc(C)ccc1C)C(=O)N1CCN(C(=O)c2ccc(Br)cc2)CC1 (stereo unspecified)
→ i	0.79
> COc1ccccc1CNC(=O)c1cc(C)nn1-c1ccccc1
→ i	0.12
> Oc1ccc(/C=N/N=C/c2ccc(O)cc2)cc1
→ i	-0.72
> COC(=O)Cc1ccc(NC(=S)NCCC(C)C)cc1
→ i	0.08
> COc1cccc(-c2csc(N3CCN(C(=S)Nc4cccc(C)c4)CC3)n2)c1
→ i	-0.22
> Cc1cccc(NS(=O)(=O)c2cc(C(=O)NCCC3=CCCCC3)ccc2Cl)c1
→ i	-1.81
> c1ccc(C(c2nnnn2C2CCCC2)N2CCN(c3nc4ccccc4s3)CC2)cc1 (stereo unspecified)
→ i	-0.35
> COC(=O)c1cccc(NC(=S)Nc2cc(Cl)ccc2OC)c1
→ i	-1.29
> Cc1ccc(C)c(S(=O)(=O)Nc2ccc(C(=O)NCC(c3ccco3)N(C)C)cc2)c1 (stereo unspecified)
→ i	0.14
> COC(=O)C1CSC(c2ccc(Cl)cc2)N1C(=O)c1ccccc1 (stereo unspecified)
→ i	-1.43
> Cc1ccc(C)c(S(=O)(=O)N2CCN(C(=O)c3cncc(Br)c3)CC2)c1
→ i	0.01
> CC(C)C[C@@]12C(=O)N(c3cccc(F)c3)C(=O)N1[C@H](c1ccc(Cl)cc1)[C@@H]1C(=O)N(C3CCCCC3)C(=O)[C@@H]12
→ i	0.77
> COc1ccc(OC)c(C(=O)CSc2nccc(-c3ccc(Br)cc3)n2)c1
→ -6.4*	-0.75*
> Oc1cc(Br)ccc1C=Nc1ccc(N2CCCCC2)cc1
→ -5.76*	2.63*
> O=C(O/N=C/c1ccc(Br)cc1)c1ccc(F)cc1
→ i	0.37
> CSc1ccccc1-c1nnc(-c2ccc(Cl)cc2)o1
→ i	-0.33
> CSc1nnc(SCC#N)s1
→ i	-0.18
> CC(Cc1cccnc1)NC(=O)c1cc(COc2ccc(F)cc2Cl)on1 (stereo unspecified)
→ i	-0.96
> Cc1ccc(N2C(=O)C3C4C=CC(CC4)C3C2=O)c([N+](=O)[O-])c1 (stereo unspecified)
→ i	1.19
> Cc1ccc(C(=O)Nc2ccc(Cl)cc2C(F)(F)F)c(Cl)c1
→ i	0.1
> CCOC(=O)C1(CCc2ccccc2)CCN(Cc2ccc(OC)cc2)CC1
→ i	-0.56

# Rewritten comma-delimited: 4 of the compounds above.
molecule,KCNQ2 block,KCNQ2 block baseline
Cc1ccc(C)c(S(=O)(=O)Nc2ccc(C(=O)NCC(c3ccco3)N(C)C)cc2)c1 (stereo unspecified),i,0.14
c1ccc(C(c2nnnn2C2CCCC2)N2CCN(c3nc4ccccc4s3)CC2)cc1 (stereo unspecified),i,-0.35
COc1ccc(CN(C)CC(=O)NC2CCCc3ccccc32)cc1OC (stereo unspecified),i,-2.53
CSc1nnc(SCC#N)s1,i,-0.18

# More structures.
# Values in the order – KCNQ2 block	KCNQ2 block baseline
> O=C(O)CC(SCC(=O)NC1CCCc2ccccc21)C(=O)O (stereo unspecified)
→ i	-1.11
> COc1ccc(OC)c(-n2nnnc2SCC(=O)Nc2ccccc2OC)c1
→ i	0.79
> COc1ccc(C)cc1NCc1cccc(OC)c1OC
→ i	3.52
> COc1ccc2c(c1)Sc1ccccc1N2CCN(C)C
→ i	1.68
> CCOc1ccc(N=C2C(=O)Nc3ccc(C)c(Br)c32)cc1
→ i	-0.53
> Cc1cc(NN)nc(Cc2ccccc2)n1
→ i	-0.14
> c1ccc(C2C/C(=N\N3CCOCC3)c3ccccc3O2)cc1 (stereo unspecified)
→ i	1.66
> O=c1ccc(-c2ccc([N+](=O)[O-])cc2)nn1-c1ccccc1
→ i	-0.2
> CCNC(=O)CON=C1c2ccccc2-c2ccccc21
→ i	-0.04
> COc1cc(OC)cc(C(=O)Nc2cccc3nc(C)ccc23)c1
→ i	-0.08
> CNC(=O)C(=O)NCCC1CCCCN1S(=O)(=O)c1cccs1 (stereo unspecified)
→ i	1.1
> COc1cc2c(cc1OC)-c1nnc(C)n1C1(CCCC1)C2
→ i	-2.14
> COc1ccc(Cc2nc3ccc(C(=O)NC(C)c4cn(C)nc4C)cc3o2)cc1 (stereo unspecified)
→ i	0.2
> CC(=O)N1CCN(c2ccc(NCc3ccc(C(C)C)cc3)cc2)CC1
→ i	0.24
> COCCCNCC1C(Oc2ccc(Cl)cc2)C(=O)N1c1ccccc1C (stereo unspecified)
→ i	0.79
> COCCCn1c(=NC(=O)c2ccncc2)c(C#N)cc2c(=O)n3cccc(C)c3nc21
→ i	2.93
> CCc1onc(C)c1C(=O)O
→ i	-1.52
> O=C(CSc1n[nH]c(=O)n1-c1ccccc1)N1CCOCC1
→ i	0.96
> Cc1nccn1CC(O)COc1ccccc1 (stereo unspecified)
→ i	-0.5
> CN1/C(=C/C2CC(=O)N(c3ccc([N+](=O)[O-])cc3)C2=O)C(C)(C)c2ccccc21 (stereo unspecified)
→ i	-0.39
> CCOc1ncccc1C(=O)OCC(=O)Nc1ccc(S(=O)(=O)N2CCOCC2)cc1
→ i	-0.96
> C=CCN(Cc1ccc(OC)c(OC)c1)C(=O)N1CCOCC1
→ i	-0.45
> CCCC[n+]1ccn(C2=C([O-])c3ccccc3C(=O)/C2=N\S(=O)(=O)c2ccc(Cl)cc2)c1
→ i	-0.27
> C/C(N)=C(/C#N)C(=O)COC(=O)c1ccncc1
→ i	1.34
> Cc1ccc(NC(=O)C2Cc3ccccc3C(=O)O2)cc1 (stereo unspecified)
→ i	-2.03
> CC(=O)Nc1ccc(-n2c(=O)c3ccccc3c3ccccc3c2=O)cc1
→ i	0.44
